Bioassay records as filed in PubChem BioAssay.
DUX4 inh = inhibitors of DUX4-driven ZSCAN4 reporter expression, primary screen, 293T cells, Gaussia and Italica luciferase. 0.8% of 37,000 active. activity change, negative = inhibition, % (test concentration not listed). 293T-iDUX4 ZSCAN4-Gaussia luciferase reporter, 24 h; hits give low values;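 active = -10% or lower and over 25 points stronger than a control reporter; inconclusive = -10% or lower with a smaller gap; inactive = above -10%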;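 note: 0% = median of neutral control wells and -100% = median of positive control wells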
DUX4 inh difference = also measured in DUX4 inh; calls as there; Gaussia minus Italica difference, %; measured here: selective DUX4 reporter inhibition;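 worked out from the two reporters; negative = selective loss of the DUX4 reporter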
DUX4 inh control = second read-out of DUX4 inh, no call of its own (marks repeat the call); activity change, negative = inhibition, %; measured here: Italica tet-on control reporter;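 0 = neutral control and -100 = positive control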
Numbers without * were called inactive; ? = inconclusive; . = not tested or not shown. Only part of the results is shown; the hit share may differ from the screen's.

The line under a structure holds: DUX4 inh, DUX4 inh difference, DUX4 inh control
> CC(C)NC(=O)N(C)C[C@@H]1OCCCC[C@H](C)Oc2ccc(NS(C)(=O)=O)cc2C(=O)N([C@H](C)CO)C[C@@H]1C
→ -2, -3, 0.9
> O=C(C[C@@H]1C=C[C@H](NS(=O)(=O)c2ccc(F)cc2)[C@@H](CO)O1)N1CCc2ccccc2C1
→ 8, 11, -3.1
> C[C@H](CO)N1C[C@H](C)[C@H](CN(C)C(=O)CC2CC2)Oc2ncc(-c3ccc(C#N)cc3)cc2C1=O
→ -4, -1, -2.3
> COc1cccc(S(=O)(=O)N2[C@@H]3CNC[C@H]2C3c2ccc(-c3cccc(C)c3)cc2)c1 (stereo partly drawn)
→ 20, 26, -6.5
> COc1cccc(C#Cc2ccc([C@@H]3[C@@H](CO)N4C(=O)CN(C(=O)C5CC5)C[C@@H]34)cc2)c1
→ ?, ., .
> O=C(c1ccccc1)N1C[C@@H]2[C@H](c3ccccc31)[C@H](CO)N2Cc1cc(F)ccc1F
→ -1, -1, 0.1
> COc1cccc(C#Cc2ccc([C@H]3[C@@H](CO)N4C(=O)CN(C(=O)C5CC5)C[C@H]34)cc2)c1
→ -2, -5, 3.0
> CC(C)C(=O)Nc1ccc2c(c1)C(=O)N(C)[C@@H]1CC[C@H](CC(=O)NCC3CC3)O[C@@H]1CO2
→ 0, 10, -10
> O=C(NC1Cc2ccccc2C1)[C@@H]1[C@@H](CO)[C@@H]2Cn3c(cccc3=O)[C@H]1N2Cc1ccccc1F
→ -6, 3, -8.7
> C[C@H]1CN([C@@H](C)CO)C(=O)c2ccccc2-c2ccccc2CO[C@@H]1CN(C)C(=O)Cc1ccccc1
→ 2, -4, 6.1
> COc1ccc(-c2cnc3c(c2)C(=O)N([C@H](C)CO)C[C@H](C)[C@H](CN(C)Cc2ccc(C(=O)O)cc2)O3)cc1
→ 1, -1, 1.9
> N#C[C@H]1[C@@H](c2ccc(/C=C/c3ccccc3)cc2)[C@@H](CO)N1C(=O)Nc1ccccc1F
→ 1, 8, -7.1
> N#C[C@@H]1[C@@H](c2ccccc2)[C@H](CO)N1S(=O)(=O)Cc1ccccc1
→ 2, 4, -2.2
> O=S(=O)(c1cccc(F)c1)N1[C@@H]2CNC[C@H]1C2c1ccc(-c2ccccc2F)cc1 (stereo partly drawn)
→ 8, 7, 1.6
> C[C@H]1CN([C@@H](C)CO)C(=O)c2cc(-c3ccc(C#N)cc3)cnc2O[C@@H]1CN(C)Cc1cccnc1
→ 3, 5, -2.1
> CN(C)C(=O)C[C@@H]1CC[C@H]2[C@@H](COC[C@@H](O)CN2S(=O)(=O)c2ccccc2)O1
→ 10, 8, 2.6
> CN(C)C(=O)c1ccc(-c2cccc(-c3nc(C(=O)N(C)C)cc4c3[C@H](CCO)N([S@@](=O)C(C)(C)C)C4)c2)cc1
→ 0, 0, -0.3
> COc1ccccc1-c1cn(CC[C@H]2CC[C@@H](NC(=O)C3CCCCC3)[C@@H](CO)O2)nn1
→ -4, -8, 4.4
> CN1c2ccc(C#Cc3cccc(F)c3)cc2[C@H]2[C@H](CCN2S(=O)(=O)c2ccccc2F)[C@@H]1CO
→ 6, -17, 23
> O=C(C[C@H]1CC[C@H]2[C@@H](COC[C@H](O)CN2Cc2cc(F)ccc2F)O1)NCc1ccccc1
→ 9, 8, 1.1
> N#Cc1ccc(-c2ccc3c(c2)[C@@H]2[C@@H](CCN2C(=O)CN2CCOCC2)[C@H](CO)N3)cc1
→ 8, 9, -1.2
> CN1c2ccc(-c3cccc(C#N)c3)cc2[C@H]2[C@H](CCN2S(=O)(=O)c2ccccc2F)[C@@H]1CO
→ ?, ., .
> C[C@@H]1CN([C@@H](C)CO)C(=O)c2cc(N(C)C)ccc2O[C@@H]1CN(C)Cc1ccc(Oc2ccccc2)cc1
→ 5, 2, 3.4
> C[C@@H]1CN([C@H](C)CO)C(=O)Cc2cc(NC(=O)Nc3ccc(F)cc3)ccc2O[C@@H]1CN(C)Cc1ccc(-c2ccccc2)cc1
→ -4, -1, -2.8
> O=C(N[C@H]1C=C[C@H](CC(=O)N2CCCCC2)O[C@@H]1CO)c1ccc2c(c1)OCO2
→ 6, 11, -4.5
> Cc1ccccc1S(=O)(=O)N1CC[C@@H]2[C@H](CO)N(C)c3ccc(C#Cc4ccc(F)cc4)cc3[C@@H]21
→ -5, -3, -1.6
> O=C(C[C@@H]1CC[C@H]2[C@@H](COC[C@H](O)CN2C(=O)Nc2cc(Cl)cc(Cl)c2)O1)NCC1CC1
→ 2, 10, -8.2
> O=C(C[C@@H]1CC[C@@H]2[C@H](COC[C@H](O)CN2C(=O)c2ccncc2)O1)NCc1ccc(-c2ccccc2)cc1
→ 7, 8, -1.3
> CCCNC(=O)N1CCC2(CC1)CN(C(=O)NC(C)C)[C@H](CO)c1c2c2ccc(OC)cc2n1C
→ 6, 13, -7.0
> Cc1noc(C)c1S(=O)(=O)Nc1ccc2c(c1)C(=O)N([C@H](C)CO)C[C@@H](C)[C@@H](CN(C)C(=O)c1ccncc1)OCCCC[C@@H](C)O2
→ -4, -6, 2.4
> COCCNC(=O)C[C@@H]1C[C@@H]2c3cc(NC(=O)c4cccnc4)ccc3O[C@@H]2[C@@H](CO)O1
→ 8, 2, 5.9
> O=C(Nc1ccccc1F)N[C@H]1CC[C@H](CCNC(=O)C2CC2)O[C@@H]1CO
→ -4, -3, -1.0
> C[C@@H]1CN([C@@H](C)CO)C(=O)Cc2cc(NC(=O)Nc3cccc4ccccc34)ccc2O[C@@H]1CN(C)Cc1ccc(C(=O)O)cc1
→ -2, 0, -1.6
> CC(=O)N1CCCCN2[C@H](C1)[C@@H](c1ccc(-c3ccc(F)cc3)cc1)[C@@H]2CO
→ 18, 13, 4.3
> CC(C)CC#Cc1ccc([C@@H]2[C@H](CO)N3C(=O)CN(C(=O)c4cnccn4)C[C@@H]23)cc1
→ 2, 8, -5.3
> O=C(C1CCCCC1)N1C[C@@H]2[C@H](c3ccccc31)[C@@H](CO)N2C(=O)Cc1ccccn1
→ 2, -4, 6.5
> COc1ccc(C#Cc2cccc(-c3nc(C(=O)NCc4ccc5c(c4)OCO5)cc4c3[C@@H](CCO)N(S(=O)C(C)(C)C)C4)c2)cc1OC (stereo partly drawn)
→ 3, 3, -0.2
> O=C(C[C@@H]1CC[C@H]2[C@@H](COC[C@H](O)CN2Cc2ccc(F)cc2)O1)NCc1ccccc1Cl
→ -10, -2, -7.4
> COCC#Cc1ccc([C@H]2[C@@H](CO)N3CCCCN(S(=O)(=O)c4ccc(OC)cc4)C[C@H]23)cc1
→ 3, -5, 7.4
> C[C@H](CO)N1C[C@H](C)[C@H](CN(C)Cc2cncnc2)Oc2cc(-c3ccccc3F)ccc2S1(=O)=O
→ -3, -1, -2.0

In another format: 5 of the compounds above
DUX4 inh	DUX4 inh difference	DUX4 inh control	structure
5	2	3.4	C[C@@H]1CN([C@@H](C)CO)C(=O)c2cc(N(C)C)ccc2O[C@@H]1CN(C)Cc1ccc(Oc2ccccc2)cc1
8	7	1.6	O=S(=O)(c1cccc(F)c1)N1[C@@H]2CNC[C@H]1C2c1ccc(-c2ccccc2F)cc1 (stereo partly drawn)
3	3	-0.2	COc1ccc(C#Cc2cccc(-c3nc(C(=O)NCc4ccc5c(c4)OCO5)cc4c3[C@@H](CCO)N(S(=O)C(C)(C)C)C4)c2)cc1OC (stereo partly drawn)
-4	-3	-1.0	O=C(Nc1ccccc1F)N[C@H]1CC[C@H](CCNC(=O)C2CC2)O[C@@H]1CO
0	10	-10	CC(C)C(=O)Nc1ccc2c(c1)C(=O)N(C)[C@@H]1CC[C@H](CC(=O)NCC3CC3)O[C@@H]1CO2

Reformatted: results already given.
DUX4 inh,DUX4 inh difference,DUX4 inh control,smiles
7,8,-1.3,O=C(C[C@@H]1CC[C@@H]2[C@H](COC[C@H](O)CN2C(=O)c2ccncc2)O1)NCc1ccc(-c2ccccc2)cc1
3,-5,7.4,COCC#Cc1ccc([C@H]2[C@@H](CO)N3CCCCN(S(=O)(=O)c4ccc(OC)cc4)C[C@H]23)cc1

Other records
The line under a structure holds: DUX4 inh, DUX4 inh difference, DUX4 inh control
> COc1ccc([C@@H]2CC=CC[C@H](C)Oc3ccccc3C(=O)N(C)[C@@H](C(C)C)C(=O)N2)c(OC)c1 (mixture of isomers)
→ 2, -9, 11
> C[C@@H](NC(=O)[C@@H]1[C@@H](CO)[C@@H]2Cn3c(cccc3=O)[C@H]1N2CCC(F)(F)F)c1ccccc1
→ -2, -3, 1.5
> O=C(C[C@@H]1C[C@@H]2c3cc(NC(=O)c4cccnc4)ccc3O[C@@H]2[C@H](CO)O1)NC1CCCCC1
→ 10, 9, 1.8
> C[C@@H]1CCCCO[C@H](CN(C)C(=O)Nc2ccc(C(F)(F)F)cc2)[C@H](C)CN([C@H](C)CO)C(=O)c2cc(NS(=O)(=O)c3cn(C)cn3)ccc2O1
→ 5, 5, -0.1
> COCC(=O)Nc1ccc2c(c1)C(=O)N(C)C[C@@H](OC)[C@@H](C)CN(Cc1ccccn1)[C@@H](C)CO2
→ 3, -1, 4.1
> CCC(=O)N1CC[C@@H]2[C@H]1c1cc(-c3ccccc3F)ccc1N(C)[C@H]2CO
→ 6, 8, -1.8
> COc1ccccc1S(=O)(=O)N(C)C[C@H]1Oc2cc(C#CCC(C)C)ccc2S(=O)(=O)N([C@@H](C)CO)C[C@H]1C
→ 2, 1, 1.4
> N#Cc1ccc(-c2ccc([C@@H]3[C@@H]4CN(Cc5cocn5)C[C@H]3N4)cc2)cc1
→ -75*, -36*, -39*
> CCS(=O)(=O)N1CCC2(CC1)CN(Cc1cc(F)ccc1F)[C@H](CO)c1c2c2ccc(OC)cc2n1C
→ 4, -15, 19
> CCCC(=O)Nc1ccc2c(c1)C(=O)N(C)[C@@H]1CC[C@H](CC(=O)NCCOC)O[C@H]1CO2
→ -1, -1, -0.3
> O=C1CNC[C@H]2[C@H](c3ccc(C4=CCCC4)cc3)[C@H](CO)N12
→ 2, 6, -4.4
> Cc1noc(C)c1NC(=O)Nc1ccc2c(c1)C(=O)N([C@@H](C)CO)C[C@H](C)[C@@H](CN(C)S(=O)(=O)c1cn(C)cn1)OCCCC[C@H](C)O2
→ 1, 2, -0.7
> Cc1ccc(S(=O)(=O)NCC[C@H]2CC[C@@H](NC(=O)c3cccnc3)[C@@H](CO)O2)cc1
→ 3, 2, 1.4
> CCC(=O)N1[C@H](CO)[C@H](c2ccc(-c3ccncc3)cc2)[C@@H]1CN(C)C(C)=O
→ 3, 1, 2.1
> CC[C@@H]1C/C=C\C[C@H](C(C)C)NC(=O)CCC(=O)N1
→ 2, -3, 5.5
> COCC#Cc1ccc([C@H]2[C@H](CO)N3CCCCN(Cc4cccnc4)C[C@@H]23)cc1
→ 18, 15, 3.0
> N#Cc1cccc(-c2ccc(C3[C@@H]4CN(S(=O)(=O)c5ccc(F)cc5)C[C@H]3N4)cc2)c1 (stereo partly drawn)
→ ?, ., .
> COCC(=O)N1CCCCN2[C@@H](CO)[C@H](c3ccc(-c4cccc(C)c4)cc3)[C@@H]2C1
→ 7, 8, -1.3
> COc1ccc2c3c(n(C)c2c1)[C@H](CO)N(C(=O)C1CCCC1)CC31CN(C(=O)CC2CC2)C1
→ 14, -1, 15
> O=C(C1CCCC1)N1CC2(C1)[C@@H](c1ccccc1)[C@H](CO)N2C(=O)NC1CCCC1
→ 1, 4, -2.8
> O=C(C1CCOCC1)N1C[C@H]2[C@@H](c3ccccc31)[C@H](CO)N2Cc1ccccc1Cl
→ 0, -4, 3.7
> O=C(C[C@@H]1C[C@H]2c3cc(NC(=O)c4ccc5c(c4)OCO5)ccc3O[C@H]2[C@H](CO)O1)NCc1ccccn1
→ 4, 8, -3.4
> COc1ccc(NC(=O)N(C)C[C@H]2OCc3ccccc3-c3ccccc3C(=O)N([C@H](C)CO)C[C@@H]2C)cc1
→ 8, 6, 2.8
> CNC(=O)C[C@H]1CC[C@H]2[C@@H](COC[C@H](O)CN2C(=O)c2ccc3c(c2)OCO3)O1
→ 7, 10, -2.7
> COCC(=O)N1[C@H](C#N)[C@H](c2ccccc2-c2ccccc2)[C@H]1CO
→ 9, 8, 1.0
> COCC#Cc1ccc2c(c1)O[C@H](CN(C)C(=O)C1CCOCC1)[C@@H](C)CN([C@@H](C)CO)S2(=O)=O
→ -3, -4, 1.1
> O=C(c1ccncc1)N1CC2(C1)[C@H](c1ccccc1)[C@@H](CO)N2Cc1ccccn1
→ 2, -1, 3.7
> CC(C)NC(=O)N1CCCCN2[C@H](CO)[C@@H](c3ccc(C#C[C@H](C)O)cc3)[C@@H]2C1
→ 20, 4, 16
> COc1cccc(NC(=O)N2CC(=O)N3[C@H](CO)[C@@H](c4ccc(C#CCC5CCCC5)cc4)[C@@H]3C2)c1
→ -4, -8, 4.1
> COc1ccccc1CNC(=O)C[C@@H]1C[C@H]2c3cc(NS(C)(=O)=O)ccc3O[C@H]2[C@@H](CO)O1
→ 1, -5, 5.3
> O=C(c1cccc(F)c1)N1C[C@H]2[C@@H](c3ccccc31)[C@@H](CO)N2Cc1cocn1
→ -1, 1, -1.2
> CCCN(C)C[C@@H]1OCc2cnnn2CCCC(=O)N([C@@H](C)CO)C[C@H]1C
→ 2, 4, -1.6
> COc1cccc(S(=O)(=O)N2CC[C@H]3[C@H](CO)Nc4ccc(Br)cc4[C@H]32)c1
→ 9, 4, 4.6
> O=C(Nc1ccc(F)cc1)N1CC(=O)N2[C@H](C1)[C@H](c1ccc(C3=CCCC3)cc1)[C@@H]2CO
→ 8, 9, -0.6
